Screens from PubChem BioAssay.
WNV NS2B-NS3 inh – inhibitors of West Nile virus NS2B-NS3 protease. P06935. WNV NS2B-NS3 protease, fluorogenic substrate Ex360/Em465; hits give low values. z-score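 (tested at a level between 10 and 100 µM)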. 65,000 tested, 0.18% active. AID 577;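 active = z-score at -3 or under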;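 note: score is relative to mean and spread of the compound wells of a plate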
Target sequence (P06935 1371-1501 limits assumed): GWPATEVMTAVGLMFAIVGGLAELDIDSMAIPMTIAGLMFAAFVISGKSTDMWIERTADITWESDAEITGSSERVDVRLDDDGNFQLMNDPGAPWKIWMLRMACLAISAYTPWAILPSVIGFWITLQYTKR
Target sequence (P06935 1502-1679 limits assumed): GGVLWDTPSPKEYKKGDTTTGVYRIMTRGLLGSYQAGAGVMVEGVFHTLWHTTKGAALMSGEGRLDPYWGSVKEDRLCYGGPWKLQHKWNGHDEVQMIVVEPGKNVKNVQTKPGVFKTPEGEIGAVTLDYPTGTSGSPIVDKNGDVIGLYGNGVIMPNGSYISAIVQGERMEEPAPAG
Hsc70 ATP site – Hsc70 inhibitors, probe displacement, primary screen, biochemical, fluorescence polarization (AID 568); Hsc70 fluorescence polarization, probe displacement; higher % means a stronger effect; strong numbers were not always called active; one-dose displacement, % at 20 µM; IC50 in µM for titrated hits; 83,000 tested, under 10 active;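 active = displacement above 50% without optical interference and an IC50 on retest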;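 note: ATPase domain with a fluorescein-tagged ATP probe; 0% = vehicle and 100% = excess ADP; read after one hour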
MT1-MMP reporter – MT1-MMP gene expression reporter suppression – cell-based, luciferase reporter, luminescence (AID 618); 87,000 tested, 0.62% active; MT1-MMP promoter luciferase reporter cells, luminescence; calls from a first round at 10 µM; hits with a dose series show EC50 in µM;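 active = over half of the reporter light lost at 10 µM or EC50 under 50 µM; inactive = the rest and hits that failed the dose series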;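 note: actives suppress MT1-MMP promoter-driven transcription so potencies describe inhibitors; HT1080 fibrosarcoma cells; overnight exposure; toxic or luciferase-blocking compounds were not removed from the actives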
* marks the source's active call; other numbers are inactive results; i = inactive; . = no result given.

The line under a structure holds: WNV NS2B-NS3 inh	Hsc70 ATP site	MT1-MMP reporter
[1] CCOC(=O)c1csc(NC(=O)CSc2nnnn2-c2ccc(OC)cc2)n1
  1.1	-3.9%	i
[2] CC(c1ccccc1F)n1cc(C(=O)NCCc2ccco2)nn1 (stereo not given)
  0.06	1.8%	i
[3] CC(C)COC(=O)c1cc(=O)[nH]c2ccccc12
  -0.18	4.8%	i
[4] Cc1cccn2c(=O)c(C=Nc3ccccc3)c(NCc3ccco3)nc12
  0.88	-4.7%	i
[5] O=C(COc1ccc(-c2nnco2)cc1)N1CCN(S(=O)(=O)c2ccc3ccccc3c2)CC1
  -1.1	0.1%	i
[6] COc1nc(C)ccc1-c1noc(-c2ccco2)n1
  2.1	3.9%	11µM*
[7] CC1=Nn2c(nnc2-c2ccco2)SC1
  1.8	-0.1%	i
[8] O=C(c1cccc(Br)c1)N1CCN(C(=O)N2CCCCC2)CC1
  1.5	4.9%	i
[9] O=C(NCc1ccccn1)C1CCN(S(=O)(=O)N2CCC3(CC2)OCCO3)CC1
  .	0.5%	i
[10] C=CCN1C(=O)S/C(=C/c2ccsc2)C1=O
  .	-3.4%	i
[11] CCOC(=O)C1CCCN(c2c(N3CCN(C4CCCCC4)CC3)c(=O)c2=O)C1 (stereo not given)
  0.46	3.5%	i
[12] COc1ccc(N2CCN(c3cc(=O)n(Cc4ccc(F)cc4)c(=O)[nH]3)CC2)cc1
  -1.2	-4.1%	i
[13] Cn1cccc1Cc1nnc(SCC(=O)NCC2CCCO2)n1-c1ccc(F)cc1 (stereo not given)
  0.23	1.5%	i
[14] CCCS(=O)(=O)N1CCC(C(=O)NCc2ccccc2Cl)CC1
  0.06	12%	i
[15] COC(=O)c1[nH]c2c(c1C)C(=O)CC(c1cccs1)C2 (stereo not given)
  -0.57	0.8%	i
[16] C=C(C)CSc1nnc(-c2cccc(Cl)c2)n1N
  -1.7	-12%	i
[17] CCn1c2ccccc2c2nnc(SCC(=O)OCN3C(=O)c4ccccc4C3=O)nc21
  -0.22	-1.6%	i
[18] COc1ccc(N(C(=O)Cn2nnc3ccccc32)C(C(=O)NCc2ccco2)c2cccnc2)cc1 (stereo not given)
  1.2	-2.1%	i
[19] CN(C)c1ccc(C2OC(=O)C(C)(C)C(=O)C2(C)C)cc1 (stereo not given)
  .	1.6%	i
[20] O=C(NCCCN1CCN(c2ccccc2F)CC1)C1CCN(S(=O)(=O)c2cccs2)CC1
  1.5	-8.9%	i
[21] C=CC[n+]1c(-c2ccc(C)cc2)csc1NNC(=O)Nc1ccccc1
  .	0.8%	i
[22] NC(=O)CSC1=Nc2ccccc2C2=NC(CCC(=O)NCc3ccc(F)cc3)C(=O)N12 (stereo not given)
  -0.98	3.7%	i
[23] CCC(C)(C)n1nnnc1C(c1cccc(C#N)c1)N1CCN(c2cc(C)ccc2C)CC1 (stereo not given)
  0.81	-4.2%	i
[24] Cc1nn(-c2ccccc2)c2sc(C(=O)NCCN3CCOCC3)cc12
  -0.17	-5.4%	i
[25] CCSc1ccccc1C(=O)NCc1ccc2c(c1)OCO2
  0.17	1.8%	i
[26] CCCS(=O)(=O)N1CCN(CC2CC3C=CC2C3)CC1 (stereo not given)
  1.2	0.0%	i
[27] O=C(Nc1ccc(N2CCCC2)c(Cl)c1)c1ccco1
  1.4	-1.7%	2.7µM*
[28] CCn1c(=O)c(C)nn2c3ccccc3nc12
  0.12	-4.0%	i
[29] CNC(=O)CN(c1ccc(C(C)C)cc1)S(C)(=O)=O
  0.3	-4.0%	i
[30] COc1ccc2nc(SCC(=O)NC(C)(C)C)[nH]c2c1
  0.3	1.9%	i

The list goes on:
The line under a structure holds: WNV NS2B-NS3 inh	Hsc70 ATP site	MT1-MMP reporter
[31] C=CCN1C(=Nc2cccnc2)SCC1(O)c1ccc(C)cc1 (stereo not given)
  -0.95	-1.3%	i
[32] CSc1ncccc1C(=O)OCC(=O)c1cc2ccccc2o1
  -0.53	-13%	i
[33] O=C(NC1C(=O)NNC1c1ccccc1)c1ccccc1 (stereo not given)
  .	1.7%	i
[34] COCCCn1c(SCC(=O)N(C)C)nnc1-c1ccccc1
  -0.53	2.2%	i
[35] Cc1cccc(NC(=O)Cn2cccc2)c1
  -0.27	-2.9%	i
[36] O=C(CNC1CCCCCC1)Nc1ccccc1N1CCCCC1
  .	0.8%	i
[37] Cc1cc(C)c2c(=O)[nH]c(SCC(=O)N3CCCCC3)nc2n1
  2.3	0.9%	i
[38] CCn1c(=NC(=O)CN2C(=O)CCC2=O)sc2c(OC)ccc(OC)c21
  -0.19	0.5%	i
[39] COC(=O)c1ccc(NC(=O)CN(C)S(=O)(=O)c2ccc(OC)c(C)c2)cc1
  0.32	1.0%	i
[40] COc1ccc2cnn(Cc3ccccc3)c(=O)c2c1OC
  0.81	-0.1%	i
[41] CNS(=O)(=O)c1cccc(C(=O)OC2CCCCC2=O)c1 (stereo not given)
  -0.47	4.6%	i
[42] Cc1cc(C)n(-c2nc3ccccc3nc2N2CCN(C(=O)c3ccccc3)CC2)n1
  -0.89	2.0%	i
[43] S=c1[nH]nc(Cc2sc(-c3ccccc3)nc2-c2ccccc2)o1
  .	-1.3%	i
[44] O=C(c1ccccc1)c1ccc(OCC(O)CN2CCCCC2)cc1 (stereo not given)
  -1.1	0.9%	i
[45] CCS(=O)(=O)c1ccc(O)c(NC(=O)c2cc(OC)c(OC)c(OC)c2)c1
  0.5	-5.4%	i
[46] CC(NC(=O)c1ccccc1Cl)C(=O)O (stereo not given)
  -0.83	0.9%	i
[47] O=C(c1ccccc1Cl)N1CCC(c2nc3c(nnn3Cc3ccco3)c(=O)[nH]2)CC1
  -0.56	-1.9%	i
[48] CCc1ccc(N(C(=O)c2csnn2)C(C(=O)NCc2ccccc2)c2ccco2)cc1 (stereo not given)
  .	5.1%	i
[49] c1ccc(-c2c(-c3ccccc3)n(Cc3ccco3)c3ncnc(NCCCn4ccnc4)c23)cc1
  .	-4.5%	i
[50] COC(=O)c1cc2occc2n1Cc1c(F)cccc1Cl
  -1.6	1.7%	i
[51] COCCCNC(=O)CSc1nc2ccccc2c(=O)n1CCCC(=O)NCC1CCCO1 (stereo not given)
  -1	-72%	i
[52] Cc1ccc(C)c(N2CC(=O)N(c3cc(C)ccc3C)CC2=O)c1
  0.15	-4.8%	i
[53] O=C(CCn1nnc2ccccc21)Nc1nnc(Cc2ccccc2)s1
  0.45	-4.7%	i
[54] Cc1ccc(N=C2C(=S)N(c3ccc(C)cc3)C(=N)N2/N=C/c2ccc(Cl)cc2)cc1
  .	4.6%	i
[55] CCN(CC)S(=O)(=O)c1ccc(N2CCCC2)c(C(=O)OCC(=O)/C(C#N)=C(\C)N)c1
  -0.6	2.2%	i
[56] COc1ccc(CCN2CNc3c(c(=O)n(C)c(=O)n3C)C2)cc1OC
  1.4	3.8%	i
[57] CCOC(=O)C1(CC)NC(c2ccco2)C2C(=O)N(C)C(=O)C21 (stereo not given)
  .	-1.3%	i
[58] CCOC(=O)C1CCCN(C(=O)c2cc3c(C)nc4ccccc4c3o2)C1 (stereo not given)
  0.35	-5.9%	i
[59] CNC(=O)NC(=O)COC(=O)CCCOc1ccc(OC)cc1
  2.2	-9.4%	i
[60] CCC(C(=O)NC1CCCCC1)N(CC1CCCO1)C(=O)CNS(=O)(=O)c1ccc(OC)cc1 (stereo not given)
  0.16	0.3%	i

Next part
The line under a structure holds: WNV NS2B-NS3 inh	Hsc70 ATP site	MT1-MMP reporter
[61] COc1ccc(CCC(=O)Nc2cc(Cl)ccc2OC)cc1
  .	-5.0%	i
[62] CCN(CC(=O)NCc1cccs1)S(=O)(=O)c1ccc(C(C)C)cc1
  .	-0.3%	i
[63] CCOc1ccc(Nc2cc(=O)oc3ccccc23)cc1
  .	5.4%	i
[64] CCn1c(SCc2nnc(-c3ccccc3)o2)nnc1-c1ccc(S(=O)(=O)N2CCCC2)cc1
  -2	-11%	i
[65] CCOc1ccc2nc(NC(=O)COC)sc2c1
  -1.6	3.7%	i
[66] CC1=C(C(=O)N2CCCCC2)C2(CCC(C)CC2)OC1=O (stereo not given)
  0.52	-1.0%	i
[67] CC(=O)NCCn1ccc2ccccc21
  0.66	-0.3%	i
[68] COc1ccc(-c2nc(-c3ccccc3)c(-c3cc([N+](=O)[O-])ccc3C)[nH]2)cc1O
  .	1.6%	i
[69] CCCCn1c(SCn2nnc3ccccc3c2=O)nc2cc(C(=O)OC)ccc2c1=O
  -0.36	2.2%	i
[70] CCNc1nc(NC#N)nc(SCC(=O)OCC)n1
  -0.67	3.0%	i
[71] COc1ccc(C2C(C(=O)NCCN3CCOCC3)c3ccccc3C(=O)N2C)cc1OC (stereo not given)
  -0.38	5.5%	i
[72] Cc1nc(-c2cccc(N)c2)cs1
  0.61	9.0%	i
[73] CC(Sc1ccccn1)C(=O)Nc1ccccc1 (stereo not given)
  0.39	3.9%	i
[74] C=CCNc1sc(C(=O)c2ccc(Br)s2)c(N)c1C#N
  .	-35%	i
[75] CCCc1cc(C(=O)Nc2sc3c(c2C#N)CCC3)no1
  -0.6	0.1%	i
[76] Cn1c(SCCOc2ccc(Cl)cc2)nnc1-c1ccncc1
  -1.3	3.8%	i
[77] O=C(c1cc(=O)c2ccccc2o1)N1CCCc2ccccc21
  0.83	2.8%	i
[78] COc1ccc(CCNC(=O)c2cnc3scc(C)n3c2=O)cc1OC
  0.0018	-1.4%	i
[79] Cc1ccc(-c2ccc(S(=O)(=O)N3CCN(C)CC3)cc2)cc1
  0.15	-0.7%	i
[80] Fc1ccccc1-c1nc(N2CCCCC2)c2ccccc2n1
  0.37	5.0%	i
[81] O=C(c1ccc(C#CC2(O)CCCCC2)cc1)N1CCN(C(c2ccccc2)c2ccccc2)CC1
  .	1.7%	i
[82] CCOC(=O)CCn1c2nc(C)cc(C)c2c(=O)n1-c1ccccc1
  -0.29	7.5%	i
[83] CCOC(=O)N1CCN(C(=O)CCn2nc(-c3ccccc3)ccc2=O)CC1
  0.3	-3.3%	i
[84] Cc1nc(N2C(=O)C(=O)/C(=C(/O)c3ccccc3)C2c2ccco2)sc1C (stereo not given)
  0.07	-4.5%	i
[85] CCOC(=O)C(C)Oc1ccc(C2NC(=O)NC(C)=C2C(C)=O)cc1Br (stereo not given)
  -0.59	-9.7%	i
[86] O=C1CC(N2CCCc3ccccc32)C(=O)N1c1ccccc1 (stereo not given)
  -0.0071	3.4%	i
[87] NC(=O)c1ccsc1NC(=O)C1CC1
  -1.5	1.5%	i
[88] CC(=O)c1coc2ccc(OCC(=O)O)cc12
  0.13	-0.9%	i
[89] O=C(c1cnccn1)N1CCN(C/C=C/c2ccccc2)CC1
  -0.67	-1.1%	i
[90] O=C(c1ccc(S(=O)(=O)N2CCOCC2)cc1)N(c1ccc(F)cc1)C1C=CS(=O)(=O)C1 (stereo not given)
  -1.1	5.6%	i

(further entries)
The line under a structure holds: WNV NS2B-NS3 inh	Hsc70 ATP site	MT1-MMP reporter
[91] CCCCNC(=O)c1c(N)n(/N=C/c2cccnc2)c2nc3ccccc3nc12
  0.48	-6.8%	i
[92] COc1ccc(OCc2nn3c(Cn4cnc5ccccc54)nnc3s2)cc1
  0.05	-2.4%	i
[93] Cn1c(=O)cc(SCC(=O)NCCN2CCN(c3ccccc3F)CC2)c2cc(Cl)ccc21
  -0.98	-9.1%	i
[94] O=C(Nc1ccc(-c2nnco2)cc1)c1ccccc1
  -0.13	-1.3%	i
[95] CCn1c(CNc2ccc(F)cc2)nnc1SCCN1CCCCC1
  0.05	-4.9%	i
[96] O=C(CSc1nnc(-c2ccc(Cl)cc2Cl)n1C1CCCCC1)NC1CCS(=O)(=O)C1 (stereo not given)
  .	-6.3%	i
[97] Cc1c(C(=O)N2CCCC2)sc(NC(=O)c2cccs2)c1C#N
  -0.45	-2.5%	i
[98] Cc1ccc2c(C(=O)CN3CCCC3)c(C)[nH]c2c1
  0.91	-0.6%	i
[99] CCc1nnc(NC(=O)c2cc3ccccc3oc2=O)s1
  -0.17	0.1%	i
[100] CCc1c(C)nc(N2CCOCC2)[nH]c1=O
  -0.27	-1.3%	i
[101] O=C(O)C1CCCCC1C(=O)NCCCCc1ccccc1 (stereo not given)
  0.71	-2.6%	i
[102] Cc1cc(C)nc(SCSc2nc(C)cc(C)n2)n1
  2.4	-6.2%	i
[103] COC(=O)c1cn(CC(=O)N2CCCCC2C)c2ccccc12 (stereo not given)
  .	2.1%	i
[104] Cc1ccc(N(C)C(=O)N2CCN(S(=O)(=O)c3c(C)cc(C)cc3C)CC2)cc1
  .	6.2%	i
[105] CCCOc1ccc(C(=O)Nc2ccc(N(C)C)cc2)cc1
  1.6	1.8%	i
[106] CCOc1ccc(C2/C(=C(/O)c3ccc(Cl)cc3)C(=O)C(=O)N2CCCN(C)C)cc1OC (stereo not given)
  -0.81	3.8%	i
[107] N#Cc1ccsc1NC(=O)CSc1ncnc2ccccc12
  -1.8	-2.5%	i
[108] Cc1nn(-c2ccccc2)c(Cl)c1/C=N/Nc1ccc(S(=O)(=O)Nc2ccccc2C(=O)O)cc1[N+](=O)[O-]
  .	9.1%	i

Rewritten in transposed form: entries from further up
(99) CCc1nnc(NC(=O)c2cc3ccccc3oc2=O)s1
(100) CCc1c(C)nc(N2CCOCC2)[nH]c1=O
(101) O=C(O)C1CCCCC1C(=O)NCCCCc1ccccc1 (stereo not given)
(102) Cc1cc(C)nc(SCSc2nc(C)cc(C)n2)n1
(103) COC(=O)c1cn(CC(=O)N2CCCCC2C)c2ccccc12 (stereo not given)

assay / compound	99	100	101	102	103
WNV NS2B-NS3 inh	-0.17	-0.27	0.71	2.4	.
Hsc70 ATP site	0.1%	-1.3%	-2.6%	-6.2%	2.1%
MT1-MMP reporter	i	i	i	i	i

A portion of the library. The share of hits here may be higher or lower than overall.
